RE007 growth inh: less growth of the S. pombe RE007 Vpr strain; S. pombe RE007 Vpr strain, BacTiter-Glo ATP luminescence, 24 h; control for the full effect not named in the record; Potency, µM (top dose mostly 92.2 µM), without a hit: top-dose activity change, negative = less growth; hit rate 0.21% among 360,000; AID 651644; active = well fitted falling curve with a large enough effect; inconclusive = small, poorly fitted or top-dose-only effect; inactive = no such curve, though single readings can be large or run the other way;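 note: % is set by controls: 0 for no effect and ±100 for the full control effect; nearly all actives have a fitted effect of over 50% in size; the assay follows cell death caused by Vpr and the record does not say whether a fall means rescue or toxicity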
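Fission yeast RE007 carrying one integrated HIV-1 vpr copy, seeded at OD 0.01 in PMG+AL medium with 23 nL pinned compound. Grown 24 h at 30 degrees; viability read by BacTiter-Glo luminescence after 5 min.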
StopGo reporter: FMDV 2A StopGo reporter, luciferase signal; Potency, µM (top dose mostly 57.9 µM), inactives show at the highest dose signal change, negative = less light; hit rate 1.2% among 410,000; human cells with a luciferase reporter of 2A StopGo recoding; control for the full effect not named in the record; AID 1159524; active = well fitted falling curve with a large enough effect; inconclusive = small, poorly fitted or top-dose-only effect; inactive = no such curve, though single readings can be large or run the other way; tested in HEK293T cells; note: % is set by controls: 0 for no effect and ±100 for the full control effect; nearly all actives have a fitted effect of over 45% in size; luciferase light after 4 h
MARV entry inh: Marburg virus entry inhibition. Marburg virus pseudotyped entry inhibition, cell reporter; control for the full effect not named in the record; about a third of the inactives were read at about 46 µM. Potency, µM (doses to about 37.8 µM), without a hit: at the top dose activity change, negative = inhibition, hits mostly inhibitors. AID 540276. hit rate 1.8% among 300,000; active = well fitted inhibition curve with a large enough effect; inconclusive = small, poorly fitted or top-dose-only effect, or effect the other way; inactive = flat fitted curve, though single readings scatter; tested in HEK293 cells; about a fifth of its hits are not listed in these tables; note: % is set by controls: 0 for no effect and ±100 for the full control effect; luciferase read-out
Cruzain noTriton: inhibitors of Trypanosoma cruzi cruzain without detergent | P25779 | purified cruzain, Z-FR-AMC fluorescence, no detergent | Potency, µM, for inactives: max response, negative = inhibition, hits mostly inhibitors | hit rate 2.3% among 200,000;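 note: plate controls were enzyme without inhibitor for no effect and buffer without enzyme for full effect; nearly all actives have a fitted effect of over 40% in size; top concentration of the series not given in the record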
Target sequence (P25779 123-467 limits assumed): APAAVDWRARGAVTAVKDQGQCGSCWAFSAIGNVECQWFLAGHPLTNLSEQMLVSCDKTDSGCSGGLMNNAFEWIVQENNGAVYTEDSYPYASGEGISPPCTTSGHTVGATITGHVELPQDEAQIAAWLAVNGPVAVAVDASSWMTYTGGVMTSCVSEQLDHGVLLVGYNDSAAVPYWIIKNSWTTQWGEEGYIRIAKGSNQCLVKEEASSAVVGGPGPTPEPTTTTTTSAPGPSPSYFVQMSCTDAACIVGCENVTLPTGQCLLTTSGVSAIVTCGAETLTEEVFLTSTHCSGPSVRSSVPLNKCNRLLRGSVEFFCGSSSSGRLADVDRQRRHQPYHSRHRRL
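Purified cruzain at 1.5 nM, pre-incubated 15 min with compound at room temperature in 100 mM sodium acetate pH 5.5, 5 mM DTT, 0.00005% Triton X-100. Reaction started with 2 uM Z-FR-AMC; AMC fluorescence increase over 60 s gives rate.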
Cruzain Triton: blocks cruzain activity in presence of Triton detergent; Potency, µM, inactives show max response, negative = inhibition, hits mostly inhibitors; AID 1478; hit rate 0.43% among 200,000; purified cruzain, Z-FR-AMC fluorescence, 0.01% Triton; P25779;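 note: plate controls were neutral wells for no effect and buffer without enzyme for full effect; nearly all actives have a fitted effect of over 40% in size; top concentration of the series not given in the record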
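Cruzain (1.5 nM) preincubated 15 min at RT with compound in 100 mM sodium acetate pH 5.5, 5 mM DTT, 0.01% Triton X-100. Reaction started with 2 uM Z-FR-AMC; AMC fluorescence (ex 360/em 450 nm) change over 60 s gave rate.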
NS1 function inh: inhibitors of influenza NS1 protein function; S. cerevisiae slowed by influenza A NS1, growth recovery by OD600; Potency, µM (titrated, usually from 46.1 µM), inactives show top-dose activity, positive = more growth; hit rate 0.4% among 270,000; AID 2326; active means well fitted rising curve with a large enough effect; inconclusive means small, poorly fitted or top-dose-only effect; inactive means no such curve, though single readings can be large or run the other way; note: nearly all actives have a fitted effect of over 50% in size
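In this qHTS, NS1 from influenza A is expressed in budding yeast, where it slows growth. Cells are switched from glucose to 2% galactose medium (pH 6.0, -URA), treated with compound, and growth recovery is read at OD600.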
SARS PLP yeast: SARS-CoV PLP inhibition in yeast. S. cerevisiae expressing SARS-CoV PLpro, growth rescue; control for the full effect not named in the record. Potency, µM (series often up to 32.9 µM), without a hit: top-dose activity, positive = growth rescue. hit rate 0.19% among 330,000. AID 485353; active means well fitted rising curve with a large enough effect; inconclusive means small, poorly fitted or top-dose-only effect; inactive means no such curve, though single readings can be large or run the other way; note: 0% is about no effect; nearly all actives have a fitted effect of over 55% in size; growth read by luminescence after 48 h
LASV entry inh: blocks Lassa virus binding to or entry into cells; Lassa virus pseudotype entry inhibition, cell reporter; control for the full effect not named in the record; Potency, µM (highest dose often 37.9 µM), without a hit: top-dose activity change, negative = inhibition, actives largely listed as inhibitors; hit rate 1.2% among 300,000; active means well fitted inhibition curve with a large enough effect; inconclusive means small, poorly fitted or top-dose-only effect, or effect the other way; inactive means flat fitted curve, though single readings scatter; tested in HEK293 cells; note: % is set by controls: 0 for no effect and ±100 for the full control effect; nearly all actives have a fitted effect of over 50% in size; luciferase read-out
Numbers without * were called inactive; ? = inconclusive; . = not tested or not shown; [ ] = remark or other dose. Unless noted, calls come from the whole dose curve; as a rule, active = well fitted curve in the direction sought with a large enough effect; inconclusive = small, poorly fitted or top-dose-only effect, or another doubt; inactive = no such curve, though single readings can be large; an effect the other way counts as inactive or inconclusive. Potency is the fitted concentration of half-maximal effect. Compounds as they come; overall some 4.5% were active at least once.

SMILES	RE007 growth inh	StopGo reporter	MARV entry inh	Cruzain noTriton	Cruzain Triton	NS1 function inh	SARS PLP yeast	LASV entry inh
CCC(C)(C)C1CCc2c(sc(NC(=O)C3c4ccccc4Oc4ccccc43)c2C(N)=O)C1 (configuration not stated)	.	-8%	6%[46.1 µM]	-2%	-1.7%	.	.	2%[46.1 µM]
CCOc1ccc(Cl)cc1CNCCc1ccc(F)cc1	-7%	-24%	?	.	.	-11%	-1%	7%[46.1 µM]
O=C(NCc1ccccc1)NC1(C(=O)N2CCN3CCCC3C2)CCCCC1 (configuration not stated)	11%	8%	20%	-6%	0.8%	10%	2%	1%
C/C(=N\NC(=O)c1cccnc1)c1nnn(-c2nonc2N)c1C	5%	-3%	?	.	.	.	4%	-15%
CCc1ccc(NC(=O)c2cnc3n(c2=O)CCS3)cc1	-11%	0%	.	-7%	-3.1%	-9%	2%	.
c1ccc(Nc2nc3ccccc3[nH]2)nc1	-28%	-2%	-26%	10µM*	25µM*	-33%	?	?
Cn1cccc1Cc1nnc(SCC(=O)Nc2ccc(F)cc2F)n1-c1ccc(F)cc1	-8%	0%	.	5%	-2.5%	-14%	-4%	.
Cc1cccc(C(=O)N[C@H](C(=O)Nc2nc(C)cs2)C(C)C)c1	3%	-10%	10%	5%	-0.1%	-2%	8%	2%
C/C(Cn1nc([N+](=O)[O-])cc1C)=N\NC(=O)c1cccc(Br)c1	-15%	-16%	11%	2%	4.5%	-5%	-4%	11%
NS(=O)(=O)c1ccc(N/C=C\C(=O)c2cccc3ccccc23)cc1	24%	31%[activator]	-10%	-1%	-16%	-14%	-5%	-9%
O=[N+]([O-])c1ccc(COc2ccccc2/C=N/O)cc1	-9%	?	-4%	-5%	-2.5%	14%	8%	-14%
O=C(c1cc2cc(F)ccc2[nH]1)N1CCC2(CC1)OCCO2	-1%	39%	.	.	.	6%	-13%	.
COC(=O)C(Cc1ccccc1)NC(=O)CCc1c[nH]c2ccccc12 (configuration not stated)	7%	12%	?	.	.	-4%	-2%	9%[46.1 µM]
COc1ccccc1Cc1nc2ccccc2nc1SCC(=O)Nc1cccc(Cl)c1C	.	28%	.	2%	2.5%	.	.	16%[46.1 µM]
Cc1ccc(CC(=O)N2CCN(c3ccccc3F)CC2)cc1	-7%	39%[activator]	.	.	.	-35%	0%	.
Clc1ccc(CN2CCCCCC2)cc1Cl	-4%	-10%	2%	.	.	1%	3%	2%
CCN(CC)c1ccc(NC(=S)NC(=O)c2ccco2)cc1	-2%	18%	0%	.	.	0%	-2%	?
COc1cccc(/C=N/NC(=O)c2c(-c3ccccc3)noc2C)c1OC	-17%	0%	4%	.	.	.	.	-5%
COc1ccc(N2CCN(CCCNC(=O)c3nnc(Cc4ccc(F)cc4)o3)CC2)cc1	.	-22%	.	-13%	-0.9%	.	.	?
CCOC(=O)C(C)Oc1cccc2c(=O)n(CC(=O)Nc3cccc(OC)c3)ccc12 (configuration not stated)	-3%	-20%	-5%	26%	-2.8%	4%	4%	.
CC1Cn2c(nc(=O)c3c2NCN(CCc2ccccc2)C3)S1 (configuration not stated)	58%	0%	-14%[46.1 µM]	.	.	.	-2%	4%[46.1 µM]
CC(C)C(=O)Nc1ccc2c(c1)nc1n2CCSC1	11%	33%[activator]	?	3%	6.5%	17%	-6%	10%
CCn1c2ccccc2c2cc(CC(N)=O)ccc21	1%	-12%	.	.	.	-2%	0%	.
N/C(CC(=O)NCCOc1ccccc1)=N\O	4%	15%	12%	-2%	2.3%	2%	0%	?
CC(=O)Nc1nonc1-c1nnc(SCC(=O)Nc2c(C)cccc2C)n1-c1ccccc1	.	-4%	?	12%	-1.3%	.	.	-3%[46.1 µM]
Cc1ccc(NC(=O)CN2C(=O)S/C(=C\c3ccc(OCC(=O)O)c(Br)c3)C2=O)cc1	2%	-3%	.	.	.	11%	-1%	.
Cn1c(=O)[nH]c(=O)c2c1nc(Br)n2Cc1cccc(Br)c1	18%	-3%	?	.	.	13%	15%	?
COc1cc(OC)c(/C=C2/C(=O)Nc3ccccc32)c(OC)c1	.	.	0.89µM*	-11%	-10%	-24%	.	?
CCN1CCN(c2ccc(S(=O)(=O)N3CCCCC3)cc2NC(=O)c2cccc(OC(F)F)c2)CC1	-4%	-19%	?	.	.	.	-7%	?
CC(OC(=O)CCCN=C1NS(=O)(=O)c2ccccc21)C(=O)c1ccccc1 (configuration not stated)	-8%	-18%	26%	.	.	.	-1%	-10%
CCCCNC(=O)c1ccc(/C=C2\Oc3ccccc3N(C)C2=O)cc1	9%	-15%	4%[46.1 µM]	.	.	.	1%	23%[46.1 µM]
Cc1nn(S(=O)(=O)c2ccc(C(C)(C)C)cc2)c(C)c1S(=O)(=O)N1CCOCC1	2%	6%	?	.	.	8%	0%	?
CCc1ccc2nc(N(CCCN(C)C)C(=O)c3ccc4c(c3)OCCO4)sc2c1	19%	4%	?	.	.	-72%	-1%	2%[46.1 µM]
CCOc1ccccc1C(=O)N/N=C/c1coc2ccc(Cl)cc2c1=O	-7%	-3%	?	.	.	-74%	4%	?
Cc1cc(=O)n2nc(N3CCCC(C(=O)Nc4ccc(C)c(C)c4)C3)sc2n1 (configuration not stated)	-5%	-22%	.	.	.	8%	-9%	.
COc1cccc(/C=N/NC(=S)NCCc2ccccc2)c1	-5%	0%	7%[46.1 µM]	.	.	-4%	-7%	3%
C/C(=N\OC(=O)NC(C)C)c1sc(-c2ccccc2)nc1C	-5%	-16%	?	-2%	-3.4%	-145%	-4%	?
CC(C)NC(=S)N=Nc1c(O)[nH]c2ccc(C(C)C)cc12	12%	-5%	-3%	4%	-7.8%	10%	8%	.
CC(/C=N/n1c(-c2cccnc2)n[nH]c1=S)=C\c1ccco1	-16%	-10%	4%	.	.	27%	3%	-5%
CCOc1cc(C(=O)Nc2ccc3c(c2)OCO3)ccc1OCCOc1ccccc1Cl	-3%	-7%	-3%	?	6.1%	-4%	.	?
O=C(Nc1cccnc1N1CCOCC1)c1cc2ccccc2oc1=O	30%	32%[activator]	2%	5%	-0.3%	-12%	-2%	15%
Cc1cc(=O)n(Cc2ccc(F)cc2Cl)c2c1c(C)nn2C	.	-24%	.	-5%	-1.8%	.	.	0%[46.1 µM]
CN1C(=O)N(C)C2C1N(C)S(=O)(=O)N2C (configuration not stated)	3%	-20%	-2%	-8%	2.9%	1%	0%	-18%
O=C(Nc1nnc(-c2ccc(Cl)cc2)o1)Nc1ccccc1F	-14%	41%[activator]	13%[46.1 µM]	.	.	-39%	3%	19%
CCOc1ccccc1C(=O)NC1CC2CCCC(C1)N2Cc1ccc(C)cc1 (configuration not stated)	4%	-14%	-2%	.	.	2%	3%	8%
COc1cccc(-c2cc(C(=O)NCc3ccc(Cl)cc3)no2)c1	20%	22%	9%	?	4.6%	-4%	2%	-3%
COC(=O)C1C2CC(C(Br)C2Br)C1C(=O)O (configuration not stated)	-3%	-15%	10%[46.1 µM]	.	.	.	.	-3%[46.1 µM]
NC(=S)N/N=C/c1ccc(-c2cc(Cl)c(Cl)cc2Cl)o1	4%	-15%	-13%[46.1 µM]	.	.	6%	-1%	-14%[46.1 µM]
CCN(CC)CCNC(=O)c1ccc(N2CCCCC2)c(NS(=O)(=O)c2ccc(C)cc2)c1	2%	0%	?	-12%	2.0%	-8%	1%	-26%
CC1CCCCN1C(=O)Cn1cnc2cc([N+](=O)[O-])ccc2c1=O (configuration not stated)	-7%	-15%	?	.	.	.	1%	13%
NC(=O)[C@@H]1CC2(CC(c3cccc(NC(=O)[C@H]4CCC(=O)N4)c3)=NO2)CN1C(=O)COc1ccc(Cl)cc1 (some centres not stated)	-13%	0%	.	.	.	5%	-1%	.
O=[N+]([O-])c1cccc(P(=O)(O)c2cccc([N+](=O)[O-])c2)c1	5%	-9%	3%[46.1 µM]	.	.	1%	1%	6%[46.1 µM]
COc1ccc(-n2nccc2-c2nn(-c3cccc(OC)c3)c(=O)n(C)c2=O)cc1	-6%	-21%	?	-1%	-0.4%	-23%	-4%	-27%
CCN1C(=O)/C(=C2\Sc3ccccc3N2CC)OC1=S	4%	?	?	2%	-1.0%	-3%	25%	-12%
O=C(Nc1ccccc1-c1ccccc1)c1ccccc1Br	-4%	-3%	.	.	.	-11%	-6%	.
CC(=O)Nc1cc(C(=O)Nc2ccc3c(c2)N(C)C(=O)c2ccccc2S3)ccc1C	.	-21%	.	4%	2.7%	.	.	-9%[46.1 µM]
Cc1ccc(S(=O)(=O)N(C)C)cc1NC(=S)NC(C)CCC(C)C (configuration not stated)	22%	-1%	?	-3%	-4.4%	13%	7%	?
CCOc1ccc(OCC(=O)OCC(=O)NNC(=O)c2ccc([N+](=O)[O-])cc2)cc1	?	12%	-16%[46.1 µM]	.	.	.	1%	16%
c1ccc(-c2noc(CN3CCCC(OCc4ccccn4)C3)n2)cc1 (configuration not stated)	-10%	50%[activator]	.	.	.	-9%	0%	.
CCOc1ccc(OCC)c(NC(=O)CCS(=O)(=O)c2ccc(Br)s2)c1	-9%	-1%	-29%	6%	-7.0%	-16%	1%	-4%

The listing continues:
SMILES	RE007 growth inh	StopGo reporter	MARV entry inh	Cruzain noTriton	Cruzain Triton	NS1 function inh	SARS PLP yeast	LASV entry inh
O=C(Cc1ccc(Br)cc1)NNC(=O)c1cccs1	-16%	31%[activator]	?	.	.	.	1%	-2%[46.1 µM]
CC(C)=CCN1CCN(Cc2nc(C(C)C)cs2)CC1CCO (configuration not stated)	-3%	-13%	2%[46.1 µM]	.	.	1%	0%	-8%
CCOc1cc(/C=C2\N=C(C)OC2=O)cc(Br)c1OCC(=O)OC	-2%	.	?	-4%	2.0%	?	-2%	?
CCN1C(=O)/C(=C2\C=Cc3ccccc3N2CC)OC1=S	1%	.	0%	.	.	-40%	.	-8%
COc1ccc(-c2c(-c3cc(OC)c(OC)c(OC)c3)noc2C)cn1	-7%	7%	.	.	.	-29%	-11%	.
Cc1ccc(S(=O)(=O)NCCC(=O)N2CCCCCCC2)cc1C	9%	0%	-1%	.	.	.	2%	-4%

Compound activity deposited in PubChem by National Center for Advancing Translational Sciences (NCATS).
